Compound activity from PubChem.
PABP FP inh = blocks human PABP binding to poly(A) RNA; fluorescence polarization; 290,000 compounds, 1% hits; inhibition, % at 35 µM; AID 2014;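 active means 50% or more with normal probe brightness, or confirmed in later tests; about a fifth of its hits are not listed in these tables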;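 further: calls also rest on retests at 20 µM and on dose response follow-up; controls were probe without protein and protein plus probe with vehicle; some compounds called inactive have numbers as strong as hits; many hits fall short of the cut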
Target sequence (P11940 whole entry, looked up): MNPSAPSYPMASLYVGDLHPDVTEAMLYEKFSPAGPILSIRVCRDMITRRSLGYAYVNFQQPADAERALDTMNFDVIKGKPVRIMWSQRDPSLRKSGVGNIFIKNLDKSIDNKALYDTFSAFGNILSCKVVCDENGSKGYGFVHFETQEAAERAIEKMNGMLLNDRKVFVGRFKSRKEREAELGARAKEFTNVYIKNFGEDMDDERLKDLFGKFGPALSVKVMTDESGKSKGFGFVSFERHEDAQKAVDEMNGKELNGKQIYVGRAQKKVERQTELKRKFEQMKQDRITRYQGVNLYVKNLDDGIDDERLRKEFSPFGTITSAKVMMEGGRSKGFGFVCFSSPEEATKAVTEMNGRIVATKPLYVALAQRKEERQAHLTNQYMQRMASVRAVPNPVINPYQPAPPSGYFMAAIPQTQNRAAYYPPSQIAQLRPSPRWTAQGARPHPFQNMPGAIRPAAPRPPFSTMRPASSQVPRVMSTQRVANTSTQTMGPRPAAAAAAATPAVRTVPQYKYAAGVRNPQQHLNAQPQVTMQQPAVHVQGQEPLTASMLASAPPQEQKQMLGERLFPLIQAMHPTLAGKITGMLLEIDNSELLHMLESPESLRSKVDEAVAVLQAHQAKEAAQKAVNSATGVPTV
MT1-MMP act inh = inhibitors of human MT1-MMP activation; AID 651647; HT1080 RFP-PRO-GFP cells, GFP/RFP ratio fluorescence, overnight; percent of plate control window, DMSO zero; GFP/RFP ratio change, % at 20 µM; 360,000 compounds, 0.061% hits; P50281;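 active means GFP/RFP ratio change of at least 30% with cell ATP level not reduced by more than half and red fluorescence within 50% of control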; further: strong numbers were not always called active
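system = RFP-PRO-GFP reporter HT1080 cells | dosing = 20 µM single dose, 1% DMSO | timing = overnight cell settling, then overnight compound exposure, 37 °C, 5% CO2 | read-out basis = GFP/RFP fluorescence ratio | controls = DMSO and RFP-L50D-GFP cell wells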
UUG fidelity = alters start codon recognition fidelity in yeast; AID 602363; S. cerevisiae UUG-firefly luciferase reporter, luminescence/redox ratio; activity score, % at 18.7 µM; 350,000 compounds, 0.13% hits;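 active means replicate mean at a twofold rise or more, about +100% in these data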;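 further: firefly luciferase made from a UUG start codon reports start codon fidelity; reporter light over untreated wells divided by growth signal over untreated wells; some hits fall short of that in this replicate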
eIF4H FP inh = inhibitors of RNA binding by human eIF4H. eIF4H fluorescence polarization binding assay. inhibition, % at 35 µM. 290,000 compounds, 0.94% hits;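 active means 50% or more with normal probe brightness, or confirmed in later tests; about a fifth of its hits are not listed in these tables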;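 further: calls also rest on retests at 20 µM and on dose response follow-up; 0% = protein and probe with vehicle and 100% = probe without protein; strong numbers were not always called active; many hits fall short of the cut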
Rce1 inhib = inhibitors of yeast Ras-converting enzyme; 290,000 compounds, 0.27% hits; Q03530; yeast membranes, quenched prenylated peptide cleavage fluorescence; calls only;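 active means fall in fluorescence gain of 50% or more versus controls, with final raw signal at or below 3038400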;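 further: plate controls were neutral control wells for no effect and wells lacking membranes for full effect; tested at 10 µM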
Target sequence (Q03530 whole entry, looked up): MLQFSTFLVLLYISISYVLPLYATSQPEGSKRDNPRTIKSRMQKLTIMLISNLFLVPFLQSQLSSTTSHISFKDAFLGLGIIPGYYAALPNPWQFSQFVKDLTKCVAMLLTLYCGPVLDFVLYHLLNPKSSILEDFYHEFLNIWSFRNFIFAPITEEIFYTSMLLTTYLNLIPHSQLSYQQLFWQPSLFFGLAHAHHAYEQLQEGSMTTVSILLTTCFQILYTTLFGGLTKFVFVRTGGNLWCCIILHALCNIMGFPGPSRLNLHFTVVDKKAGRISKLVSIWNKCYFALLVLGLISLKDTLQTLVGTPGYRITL
HIV Env fusion = HIV envelope-mediated fusion inhibition | inhibition, % at 12.3 µM | HeLa-JRFL Env/CEM21 cell fusion, luciferase | 360,000 compounds, 1.1% hits;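 active means mean replicate inhibition score of at least 50 and every replicate individually at or above 50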;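 further: 0% = plate neutral controls and 100% = maraviroc near 300 nM; one replicate is shown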
CSC inhib = cancer stem cell inhibition | cancer stem cell-like cells viability, luminescence | inhibition, % at 7.5 µM | 300,000 compounds, 1.1% hits | AID 2717;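 active means mean at 75% or more and at least half the replicates too; tested in HMLE shEcad cells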;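 further: 0% = median of negative and 100% = median of positive control wells; the first replicate is given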
MT1-MMP act inh RFP = second read-out of MT1-MMP act inh, no call of its own (marks repeat the call); RFP signal change, %; measured here: RFP expression control read;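 0 = vehicle wells; hits needed this value within 50% of zero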
* hit, by the source's call; i = inactive; . = no result given; + = active, no number; & = joins results of further samples; [ ] = another dose, or the depositor's remark. These rows are one share of the data. The share of hits here may be higher or lower than overall.

SMILES	PABP FP inh	MT1-MMP act inh	MT1-MMP act inh RFP	UUG fidelity	eIF4H FP inh	Rce1 inhib	HIV Env fusion	CSC inhib
Cc1onc(-c2ccc(Cl)cc2Cl)c1C(=O)/C=C/N(C)C	5	-12	-3	.	2	i	2	18
O=C(CSc1nccc(-c2ccc(Br)cc2)n1)NCCc1ccccc1	-5	1	-4	0	11	i	.	-1
NC(=O)c1cnn(-c2cc(Oc3ccccc3)ncn2)c1N	-3	.	.	-15	-5	i	-30	-8
CCOC(=O)Nc1ccc(S(=O)(=O)Nc2cc(C)nc(C)n2)cc1	-8	-3	-4	-18	6	i	-50	14
O=C(NN1c2ccccc2CCc2ccccc21)c1ccccc1Br	-5	2	-4	2	-3	i	-20	2
O=C(CN1C(=O)c2cccc3cccc1c23)N1CCN(Cc2ccc3c(c2)OCO3)CC1	-12	-1	-11	-4	-10	i	.	-4
CCOC(OCC)c1nc(N)[nH]c(=O)c1CCCCc1ccccc1	.	7	-4	3	.	.	2	.
CCOC(=O)N1CCC(N2C(=O)c3ccccc3C2Nc2ccc3c(c2)OCCO3)CC1 (configuration not stated)	-5	1	0	-43	-4	i	8	.
O=c1c(Cc2ccc(F)cc2)c(O)ccn1CCc1cnc[nH]1	-4	0	1	.	2	i	-9	-10
c1ccc2cc(CCO[C@H]3CCCCO3)ncc2c1	.	5	0	-14	.	.	16	-4
O=C(NCCC1CCCCN1S(=O)(=O)c1ccccc1)C(=O)NCc1ccccc1 (configuration not stated)	.	12	0	-6	.	i	.	-10
CC1CCCCC1NC(=O)CCc1nc2sc3c(c2c(=O)[nH]1)CCCC3 (configuration not stated)	.	-5	-7	.	.	i	1	13
CC1(C)CC(NC(=S)Nc2ccc(S(N)(=O)=O)cc2)CC(C)(C)N1	-5	1	3	-14	-3	i	7	-2
COc1ccc(Cc2nc3ccc(S(=O)(=O)N4CCOCC4)cc3[nH]2)cc1OC	2	3	-11	-13	3	i	31	-12
CCOC(=O)Cc1csc(SC(C)C(=O)NC2CCCCC2C)n1 (configuration not stated)	.	-2	1	-13	.	i	1	.
COCCNC(=O)/C=C/c1c(Cl)cccc1Cl	-1	-1	3	.	-9	i	-11	-14
CCCC(=O)Nc1cccc2c1CCCC2	-6	1	1	-9	0	i	.	-9
CC(=O)Oc1ccccc1N(C(C)=O)S(=O)(=O)c1ccc2ccccc2c1	-1	2	2	.	-1	i	-2	12
CC(C)(C)c1ccc(NC(=O)c2ccsc2)cc1	-11	7	-2	-4	4	i	-194	10
COc1ccc(CNC(=O)CSc2nnc3nc(C)cc(C)n23)cc1OC	3	1	6	.	6	.	5	1
Cn1c(=O)n(Cc2ccccc2F)c(=O)c2c1nc1n2CCN1Cc1ccco1	2	-5	-4	11	0	i	11	12
CCOC(=O)c1sc(NC(=O)c2ccc(S(=O)(=O)N3CCOCC3)cc2)nc1-c1ccccc1	2	-5	-15	.	5	.	15	8
CCCn1c2ccc(F)cc2c2nnc(SCCN3CCCCC3)nc21	3	2	0	.	2	i	4	26
CCCCN(C(=O)NC(=O)Nc1cccc(C)c1C)S(C)(=O)=O	5	-3	-1	-8	8	i	.	.
CCOc1cc(C(=S)N2CCOCC2)ccc1OS(=O)(=O)c1ccc(C)cc1	0	1	-8	3	-11	i	14	-4
COC(=O)c1ccccc1NC(=O)CN(C)S(=O)(=O)c1ccc(OC)cc1	13	-1	-6	4	-4	i	.	-1
O=C(NCc1nc2ccccc2[nH]1)C1=C[C@H](C2CCCCC2)C[C@H](OCCCCO)O1	.	1	-3	-13&-16	.	i	-8[16.7 µM]	11
COc1ccc(C(=O)N=c2sccn2C)cc1	15	-3	0	.	-7	i	-10	2
COc1ccc(NC(=O)CS(=O)(=O)c2ccccc2Cl)cc1	16	-1	2	-3	5	i	-18	.
O=C(Nn1c(SCc2ccc(F)cc2)nc2ccsc2c1=O)c1ccccc1	-4	-1	4	.	-1	i	-12	30
COc1ccc(NC(=O)C2C3C=CC(O3)C2C(=O)O)cc1 (configuration not stated)	4	3	3	-32	-5	i	-12	-12
COCCCNC(=O)C[C@H]1C[C@H](C(=O)N2CCOCC2)[C@@]2(CCC3CCCC3)c3[nH]c4ccc(Cl)cc4c3CCN2C1=O	.	-6	-14	-17	.	.	-76	.
Cc1ccc(C(=O)N/N=C/C=C/c2ccccc2)o1	12	-1	0	.	-8	i	-4	-8
COCCNC(=O)C(c1ccncc1)N(C(=O)c1sc(C)nc1C)c1cccc(C)c1 (configuration not stated)	0	0	-4	.	-5	i	-4	10
Cc1ccc(CNC(=O)C(=O)NCC2OCCN2C(=O)c2ccc3c(c2)OCO3)cc1 (configuration not stated)	11	1	-2	-14	0	i	7	-7
CCCCCCCNC(=O)C1(CC2CC(c3cccc(Br)c3)=NO2)CCNCC1 (configuration not stated)	-5	-12	-11	-1	-9	i	29	159*
O=[N+]([O-])c1ccc(-c2cnc(SC(c3ccccc3)c3ccccc3)[nH]2)cc1	-10	-1	-11	.	-8	+	.	19
COC(=O)C/C=C/[C@@H](C)[C@@H](/C=N/O[C@@H](C)c1cn([C@H](CO)Cc2ccccc2)nn1)NS(=O)(=O)c1ccc(C)cc1	0	.	.	.	0	i	.	3
COc1ccc(CCNC(=O)CN(C)S(=O)(=O)c2cccs2)cc1	.	-5	0	-8	.	.	-2	1
Cc1ccc(-c2ccc(=O)n(CC(=O)NCCCN3CCCCC3)n2)cc1	-12	-3	3	-16	-13	i	.	-5
COCc1c(C(=O)N2CCN(S(=O)(=O)c3ccccc3Cl)CC2)oc2ccccc12	.	0	-2	-36	.	.	.	7
CCN(CC)C(=O)CSc1nnc(SC(C)C(=O)NC2CC2)s1 (configuration not stated)	.	-4	0	-6	.	.	0	17
O=C(Nc1ccc(C(=O)N2CCCCC2)cc1)[C@H]1O[C@@H](n2ccc(=O)[nH]c2=O)[C@H](O)[C@@H]1O	.	-1	2	2	.	.	19	.
CCCc1nn2c(=O)cc(CSCC(=O)Nc3ccc(OC)cc3)nc2s1	5	0	2	-16	-21	i	-8	22
CCN(CC)c1ccc([N+](=O)[O-])cc1/C=N/NC(=O)CC#N	26	2	0	.	0	i	1	-20
Clc1c(OCCCn2ccnc2)ccc2ccccc12	2	6	-15	-26	2	i	-2	31
CC(C)CCNC(=O)CO/N=C/c1ccccc1OC(F)F	8	1	-1	-10	-3	i	12	-15
CCN1CCN(C(=O)c2cc3sccc3n2CC(=O)c2ccccc2)CC1	-11	1	-2	-11	1	i	-19	.
O=[N+]([O-])c1ccccc1/C=C/C=N/Nc1ccc(S(=O)(=O)Nc2ccc(Cl)cc2)cc1[N+](=O)[O-]	-10	8	-13	-18	-5	i	9	40
O=C(Nc1cc(S(=O)(=O)N2CCOCC2)ccc1N1CCCC1)c1ccc2c(c1)S(=O)(=O)c1ccccc1C2=O	8	1	2	.	-1	i	13	0
Nc1ccccc1C(=O)Nc1nccs1	-10	3	0	-23	-7	.	-9	-3
COc1ccccc1-n1ccnc(SCC(=O)NCc2ccccc2Cl)c1=O	.	-3	-9	-7	.	i	3	2
O=C(NCc1cccc(C(F)(F)F)c1)c1cccc(Cl)c1Cl	-6	-2	-1	.	0	i	3	-5
COc1cc(C(=O)NCc2nc(C)cs2)ccc1OC1CCN(C(C)=O)CC1	4	-2	0	-26	-10	.	-12	-8
Cc1nn(C)cc1/C=N/NC(=S)Nc1ccc(Cl)cc1Cl	-4	-1	-4	-19	-1	i	-3	2
Cc1onc(-c2ccccc2Cl)c1C(=O)N1CCCCC1C(=O)O (configuration not stated)	5	0	9	2	-3	i	-29	-7
Cc1ccc2c(C(=O)CN3CCSCC3)c(C)[nH]c2c1	-6	5	-2	-3	4	i	.	.
N#C/C(C(N)=O)=C1/SC=C(c2ccccc2)N1c1ccccc1	-5	-2	-5	-7	-6	i	19	6
O=C(c1ccccc1F)N1C(=O)c2cccc3cccc1c23	10	2	6	.	5	i	0	9
Cc1cc(NC(=O)CSc2ncn[nH]2)no1	-5	2	9	.	1	i	1	2

Entries listed above that bear a hit mark in Rce1 inhib:
SMILES,MT1-MMP act inh,MT1-MMP act inh RFP,UUG fidelity,Rce1 inhib,HIV Env fusion
O=[N+]([O-])c1ccc(-c2cnc(SC(c3ccccc3)c3ccccc3)[nH]2)cc1,-1,-11,.,+,.

More structures.
SMILES	PABP FP inh	MT1-MMP act inh	MT1-MMP act inh RFP	UUG fidelity	eIF4H FP inh	Rce1 inhib	HIV Env fusion	CSC inhib
CC(=O)N1CCC(N(CCN2CCOCC2)C(=S)Nc2ccccc2C)CC1	-13	2	3	.	9	i	14	-14
N#Cc1c(Cl)nc2c(c1C#N)CCCC2	8	-3	5	.	-16	i	-7	-18
CC(C)(C)OC(=O)[C@H](Cc1ccccc1)NC(=O)c1nc[nH]c1C(=O)NCC(=O)OCc1ccccc1	-10	2	1	13	12	i	9	-6
CC(C)CN(C(=O)c1ccc(Br)o1)C1CCS(=O)(=O)C1 (configuration not stated)	.	3	5	-17	.	i	4	-9
NC(=O)c1cc(S(=O)(=O)N2CCCC2)ccc1OCc1ccc(F)cc1	-1	-6	-3	-7	6	i	23	-6
CCc1ccc(N=C2N=C(N)c3ccccc32)cc1	8	2	-1	-35	4	i	.	-3
Cc1noc(C)c1C(=O)NCCCN1CCCC1=O	6	2	3	-13	-9	i	-32	-3
CCN(Cc1cc2cc(OC)ccc2[nH]c1=O)C(=O)c1ccncc1	-7	-3	3	.	-9	i	-11	.
COc1cc(/C=N/n2c(=S)[nH]nc(C)c2=O)cc([N+](=O)[O-])c1O	5	6	4	-12	3	i	19	-17
CCOc1ccc(C2C(C(=O)NC)=C(C)Nc3nc4ccccc4n32)cc1OC (configuration not stated)	.	5	4	-14	.	i	-13	-8

In a second layout: 4 of the compounds above.
COc1cc(/C=N/n2c(=S)[nH]nc(C)c2=O)cc([N+](=O)[O-])c1O
  PABP FP inh = 5
  MT1-MMP act inh = 6
  MT1-MMP act inh RFP = 4
  UUG fidelity = -12
  eIF4H FP inh = 3
  Rce1 inhib = i
  HIV Env fusion = 19
  CSC inhib = -17

NC(=O)c1cc(S(=O)(=O)N2CCCC2)ccc1OCc1ccc(F)cc1
  PABP FP inh = -1
  MT1-MMP act inh = -6
  MT1-MMP act inh RFP = -3
  UUG fidelity = -7
  eIF4H FP inh = 6
  Rce1 inhib = i
  HIV Env fusion = 23
  CSC inhib = -6

CC(C)(C)OC(=O)[C@H](Cc1ccccc1)NC(=O)c1nc[nH]c1C(=O)NCC(=O)OCc1ccccc1
  PABP FP inh = -10
  MT1-MMP act inh = 2
  MT1-MMP act inh RFP = 1
  UUG fidelity = 13
  eIF4H FP inh = 12
  Rce1 inhib = i
  HIV Env fusion = 9
  CSC inhib = -6

CC(C)CN(C(=O)c1ccc(Br)o1)C1CCS(=O)(=O)C1 (configuration not stated)
  PABP FP inh = .
  MT1-MMP act inh = 3
  MT1-MMP act inh RFP = 5
  UUG fidelity = -17
  eIF4H FP inh = .
  Rce1 inhib = i
  HIV Env fusion = 4
  CSC inhib = -9
